Screens (PubChem BioAssay)
PAFAH1B2 FP inh: inhibitors of human PAFAH1B2; 340,000 compounds, 1.2% hits; P68402; recombinant PAFAH1B2, FP-rhodamine activity probe, fluorescence polarization; inhibition, % at 3.39 µM; AID 492953;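 active = inhibition above the mean of all tested compounds plus 3 SD, cut at about 24% in these data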;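 also: 0% = enzyme with DMSO and 100% = wells lacking PAFAH1B2; many of its hits are not listed in these tables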
Target sequence (P68402 whole entry, looked up): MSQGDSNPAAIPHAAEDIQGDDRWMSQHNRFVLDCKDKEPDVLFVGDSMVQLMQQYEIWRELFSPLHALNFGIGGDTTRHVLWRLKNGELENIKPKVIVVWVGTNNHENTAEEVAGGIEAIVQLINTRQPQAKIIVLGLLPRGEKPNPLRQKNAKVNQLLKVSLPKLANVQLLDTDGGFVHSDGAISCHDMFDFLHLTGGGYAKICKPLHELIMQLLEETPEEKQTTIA
GSTO1 inh: counter-screen for RBBP9 inhibitors: inhibitors of human GSTO1; recombinant GSTO1, activity-based probe fluorescence polarization; 300,000 compounds, 1.1% hits; AID 1974; P78417; inhibition, % at 5.96 µM;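 active = inhibition above the campaign mean inhibition plus 3 SD, cut at about 35% in these data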;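 also: 0% = GSTO1-1 with DMSO and 100% = wells lacking GSTO1-1 enzyme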
PAFAH1B3 FP inh: inhibitors of human PAFAH1B3; 340,000 compounds, 0.28% hits; Q15102; recombinant PAFAH1B3, FP-rhodamine probe, fluorescence polarization; inhibition, % at 3.39 µM; AID 492972;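 active = inhibition above the screen-wide average of all tested compounds plus 3 SD, cut at about 25% in these data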;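 also: 0% = enzyme with DMSO only and 100% = wells lacking PAFAH1B3 protein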
PAD4 inh: blocks human protein arginine deiminase 4. inhibition, % at 6.36 µM. recombinant PAD4, RCA probe fluorescence polarization. Q9UM07. 330,000 compounds, 0.41% hits;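 active = percent inhibition above a cutoff equal to the mean of all tested compounds plus 3 SD, cut at about 15% in these data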;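 also: 0% = PAD4 with RCA probe and DMSO and 100% = probe without PAD4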
LYPLA1 counter: counter-screen for PME1 inhibitors: inhibitors of human LYPLA1. O75608. recombinant LYPLA1, FP-Rh probe fluorescence polarization. inhibition, % at 5.9 µM. 320,000 compounds, 0.16% hits. AID 2174;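 active = inhibition above the mean of all tested compounds plus 3 SD, set per campaign, cut at about 14% in these data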;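 also: inhibitors block serine hydrolase probe labeling of LYPLA1 so polarization falls; 0% = enzyme with DMSO and 100% = wells lacking LYPLA1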
Target sequence (O75608 whole entry, looked up): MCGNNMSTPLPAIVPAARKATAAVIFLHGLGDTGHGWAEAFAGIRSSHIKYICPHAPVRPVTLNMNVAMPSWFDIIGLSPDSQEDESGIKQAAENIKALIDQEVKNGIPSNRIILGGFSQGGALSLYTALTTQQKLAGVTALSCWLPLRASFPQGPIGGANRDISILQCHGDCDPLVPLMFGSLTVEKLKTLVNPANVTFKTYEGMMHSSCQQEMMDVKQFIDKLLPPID
Starred values were filed as active, the others as inactive; · = not tested or not shown.

No.	mol	PAFAH1B2 FP inh	GSTO1 inh	PAFAH1B3 FP inh	PAD4 inh	LYPLA1 counter
1	CC(=O)Nc1ccc(S(=O)(=O)Nc2nc3ccccc3nc2Nc2ccc3ccccc3c2)cc1	12	-11	22	-4	3
2	CC1CCc2sc(C(=O)NNS(=O)(=O)c3ccc(F)c(F)c3F)cc2C1 (stereo not given)	12	4	3	0	3
3	O=C(Oc1oc(-c2ccco2)nc1C=Nc1ccccc1)c1ccoc1	1	4	5	-5	4
4	O=C(Nc1ccc(Cl)cc1)Nc1nc(-c2ccccc2O)cs1	-3	-37	17	-2	-19
5	CCCc1cc(=O)oc2c3c(cc(OCC(=O)NCC4CCC(C(=O)O)CC4)c12)OC(C)(C)CC3 (stereo not given)	2	5	9	0	2
6	COc1cc(SC)ccc1C(=O)OCC(=O)NC1CCCCC1	4	5	11	-2	-4
7	CC(C)(C)C(=O)NC(NC(=S)Nc1sc2c(c1C#N)CCCC2)C(Cl)(Cl)Cl (stereo not given)	14	-3	16	-8	-10
8	CCOC(=O)c1ccc(NC(=O)CCN2C(=O)C3CC=CCC3C2=O)cc1 (stereo not given)	0	·	1	·	·

No.	mol	PAFAH1B2 FP inh	GSTO1 inh	PAFAH1B3 FP inh	PAD4 inh	LYPLA1 counter
9	CCCCCCC(=O)Nc1nc(C)c(-c2csc(Nc3ccc(Cl)cc3)n2)s1	21	-9	28*	-9	-21
10	O=S(=O)(Nc1nc2ccccc2nc1Nc1cccc(S(=O)(=O)N2CCCCC2)c1)c1ccccc1	3	22	7	-9	-6
11	Cc1nn(-c2ccccc2)c(Cl)c1/C=N/NC(=O)c1ccncc1	0	2	5	-1	-2
12	O=C(COC(=O)C1CC2CCCC(C1)C2=O)Nc1ccc(F)c(Cl)c1 (stereo not given)	14	·	13	-2	·
13	O=C(Cc1ccc(S(=O)(=O)N2CCOCC2)s1)NCCc1ccc(F)cc1	10	4	6	-7	1
14	O=C(Nc1cc(S(=O)(=O)N2CCOCC2)ccc1O)c1ccc(S(=O)(=O)N2CCCCC2)cc1	13	·	-4	-4	·
15	CCCc1cc(=O)oc2c3c(cc(OCC(=O)NCCCn4ccnc4)c12)OC(C)(C)CC3	1	4	11	3	1
16	N/C(Cc1ccc(Cl)c(Cl)c1)=N\OC(=O)c1cccs1	8	8	5	-1	-4

No.	mol	PAFAH1B2 FP inh	GSTO1 inh	PAFAH1B3 FP inh	PAD4 inh	LYPLA1 counter
17	O=C(COC(=O)CC1CC2CCC1C2)Nc1ccc(F)cc1Cl (stereo not given)	7	·	11	0	·
18	CCc1ccc(NC(=O)COC(=O)c2cccs2)cc1	4	9	4	1	-1
19	CCOC(=O)c1sc(Nc2nc3c(OC)cccc3s2)cc1C	12	-22	15	0	-4
20	Cc1c(C)c2c(OCC(=O)N3CCC[C@H]3C(=O)O)cc3c(c2oc1=O)CCC(C)(C)O3	12	2	8	-2	0
21	CC(=O)c1cccc(NC(=S)NCCCCc2ccccc2)c1	7	0	13	4	0
22	Cc1c(C)c2c(OCC(=O)NCc3ccco3)cc3c(c2oc1=O)CCC(C)(C)O3	0	10	11	0	-1
23	O=C(COC(=O)c1ccc(N2CCCC2=O)cc1)Nc1ccccc1	-5	·	0	-1	0
24	COc1cccc(N2CCN(CC(=O)Nc3ccc(-n4cnnn4)cc3)CC2)c1	0	11	9	-2	1

Reprinted, nos. 5 to 18
No.	mol	PAFAH1B2 FP inh	GSTO1 inh	PAFAH1B3 FP inh	PAD4 inh	LYPLA1 counter
5	CCCc1cc(=O)oc2c3c(cc(OCC(=O)NCC4CCC(C(=O)O)CC4)c12)OC(C)(C)CC3 (stereo not given)	2	5	9	0	2
6	COc1cc(SC)ccc1C(=O)OCC(=O)NC1CCCCC1	4	5	11	-2	-4
7	CC(C)(C)C(=O)NC(NC(=S)Nc1sc2c(c1C#N)CCCC2)C(Cl)(Cl)Cl (stereo not given)	14	-3	16	-8	-10
8	CCOC(=O)c1ccc(NC(=O)CCN2C(=O)C3CC=CCC3C2=O)cc1 (stereo not given)	0	·	1	·	·
9	CCCCCCC(=O)Nc1nc(C)c(-c2csc(Nc3ccc(Cl)cc3)n2)s1	21	-9	28*	-9	-21
10	O=S(=O)(Nc1nc2ccccc2nc1Nc1cccc(S(=O)(=O)N2CCCCC2)c1)c1ccccc1	3	22	7	-9	-6
11	Cc1nn(-c2ccccc2)c(Cl)c1/C=N/NC(=O)c1ccncc1	0	2	5	-1	-2
12	O=C(COC(=O)C1CC2CCCC(C1)C2=O)Nc1ccc(F)c(Cl)c1 (stereo not given)	14	·	13	-2	·
13	O=C(Cc1ccc(S(=O)(=O)N2CCOCC2)s1)NCCc1ccc(F)cc1	10	4	6	-7	1
14	O=C(Nc1cc(S(=O)(=O)N2CCOCC2)ccc1O)c1ccc(S(=O)(=O)N2CCCCC2)cc1	13	·	-4	-4	·
15	CCCc1cc(=O)oc2c3c(cc(OCC(=O)NCCCn4ccnc4)c12)OC(C)(C)CC3	1	4	11	3	1
16	N/C(Cc1ccc(Cl)c(Cl)c1)=N\OC(=O)c1cccs1	8	8	5	-1	-4
17	O=C(COC(=O)CC1CC2CCC1C2)Nc1ccc(F)cc1Cl (stereo not given)	7	·	11	0	·
18	CCc1ccc(NC(=O)COC(=O)c2cccs2)cc1	4	9	4	1	-1

Going on with the list.
No.	mol	PAFAH1B2 FP inh	GSTO1 inh	PAFAH1B3 FP inh	PAD4 inh	LYPLA1 counter
25	COc1ccccc1C(=O)NNC(=S)NC(=O)c1ccco1	2	5	-2	0	-5
26	COc1ccc(NC(=O)Nc2ccc3c(c2)N(C)C(=O)CS3)cc1Cl	4	0	14	-1	-4
27	Cc1ccc2nc(-c3ccc(NC(=O)COC(=O)c4ccc(=O)[nH]c4)cc3)sc2c1	-3	-11	-4	1	-11
28	N/C(Cc1ccc(Cl)cc1Cl)=N\OC(=O)c1ccccc1F	0	3	4	-4	2

Some of the compounds tested (hit frequency here may not be typical).
